Assay outcomes from PubChem.
EPAC1 ag = qHTS for Agonist of cAMP-regulated guanine nucleotide exchange factor 3 (EPAC1): primary screen; Rap guanine nucleotide exchange factor 3 (Homo sapiens), O95398; EPAC1 agonist qHTS, biochemical assay; response scale: 100% = response to 6.5 mM cAMP; Potency, µM (top dose mostly 154 µM), for the others: top-dose activation, usual class: activators; 360,000 compounds, 0.073% hits; AID 720707, 2013; also: nearly all actives have a fitted effect of over 60% in size
Target sequence (O95398 whole entry, looked up): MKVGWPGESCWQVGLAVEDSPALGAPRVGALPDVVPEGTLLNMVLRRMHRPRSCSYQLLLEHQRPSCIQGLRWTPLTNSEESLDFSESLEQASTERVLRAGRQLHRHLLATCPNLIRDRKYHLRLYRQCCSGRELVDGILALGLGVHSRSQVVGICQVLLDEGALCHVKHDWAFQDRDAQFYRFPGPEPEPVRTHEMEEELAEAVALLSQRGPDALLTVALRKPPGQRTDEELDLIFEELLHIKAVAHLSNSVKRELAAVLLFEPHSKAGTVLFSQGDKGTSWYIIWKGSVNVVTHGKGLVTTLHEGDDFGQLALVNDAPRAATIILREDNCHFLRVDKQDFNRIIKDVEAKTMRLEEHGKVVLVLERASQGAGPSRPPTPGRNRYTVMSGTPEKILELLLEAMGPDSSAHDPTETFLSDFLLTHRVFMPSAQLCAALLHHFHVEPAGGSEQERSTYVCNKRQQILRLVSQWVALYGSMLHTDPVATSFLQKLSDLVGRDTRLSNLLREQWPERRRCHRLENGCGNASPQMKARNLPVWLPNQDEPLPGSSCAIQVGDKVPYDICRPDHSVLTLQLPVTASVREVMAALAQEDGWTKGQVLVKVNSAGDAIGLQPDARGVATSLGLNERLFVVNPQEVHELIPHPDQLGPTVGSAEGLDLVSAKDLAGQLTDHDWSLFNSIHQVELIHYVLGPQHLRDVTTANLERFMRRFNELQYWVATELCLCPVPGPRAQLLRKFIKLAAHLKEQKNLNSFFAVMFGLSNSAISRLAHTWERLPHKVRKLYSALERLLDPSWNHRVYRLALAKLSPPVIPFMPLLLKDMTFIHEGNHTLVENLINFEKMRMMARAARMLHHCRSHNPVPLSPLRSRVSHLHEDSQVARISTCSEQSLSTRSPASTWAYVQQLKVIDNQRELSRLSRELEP
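Normalized to 6.5 mM cAMP, activity reflects EPAC1-catalysed release of BODIPY-GDP from Rap1B, followed kinetically over 30 min at 480 nm excitation, 540 nm emission. Reaction contained 100 nM EPAC1, 250 nM Rap1B-BODIPY-GDP, 50 uM GDP.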
FUS yeast rescue = qHTS for Suppressors of FUS Proteinopathy: Primary screen using FUS-linked yeast assay; S. cerevisiae FUS-expressing, growth rescue, OD600, 24 h; Potency, µM (highest dose often 76.6 µM), for the others: top-dose growth rescue (activation), most hits filed as activators; 390,000 compounds, 0.24% hits; AID 1347120, 2019;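 also: plate controls were DMSO vehicle for no effect and reference control for full effect; nearly all actives have a fitted effect of over 55% in size; some results filed as inactive show a strong effect at the top dose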
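Compound concentration series was pinned onto galactose-induced FUS-expressing yeast seeded at OD 0.005. Plates sat 24hr at 30C; absorbance at 600 nm gave growth. DMSO served as background control.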
aSyn rescue = qHTS of alpha-syn Inhibitors; 370,000 compounds, 0.14% hits; Yeast expressing alpha-synuclein, growth rescue, BacTiter-Glo, 24 h; Potency, µM (top dose mostly 46.1 µM), for the others: at the highest dose growth rescue (activation), hits mostly activators; AID 652106, 2013; also: % of control where 0% means no effect; nearly all actives have a fitted effect of over 65% in size
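Screening used galactose-induced yeast with toxic alpha-synuclein levels, exposed to compound for 24 hr at 30 deg C. Cell growth, read with BacTiter-Glo luminescence, gave the measured signal.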
TDP-43 yeast inh = qHTS of TDP-43 Inhibitors | Potency, µM (highest dose often 46.1 µM), for the others: at the highest dose growth rescue (activation), hits mostly activators | 410,000 compounds, 1.8% hits | TDP-43 expressing yeast growth rescue, BacTiter-Glo, 24 h; also: % of control where 0% means no effect; nearly all actives have a fitted effect of over 50% in size
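Yeast cells expressing TDP-43 under galactose induction are exposed to compounds for 24 hr at 30 deg C. BacTiter-Glo luminescence measures growth, so protective compounds score as activators.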
EPAC1 antagonist = qHTS for Antagonist of cAMP-regulated guanine nucleotide exchange factor 3 (EPAC1): primary screen; Rap guanine nucleotide exchange factor 3 (Homo sapiens), O95398; EPAC1 GEF assay, Rap1b-BODIPY-GDP exchange fluorescence; Potency, µM (highest dose often 115 µM), inactives show at the highest dose activity change, negative = inhibition, hits mostly inhibitors; 360,000 compounds, 0.14% hits; AID 720709, 2013;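 also: plate controls were vehicle for no effect and positive control for full effect; nearly all actives have a fitted effect of over 50% in size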
Starred values were filed as active, the others as inactive; ? = inconclusive; nt = no result given; [ ] = dose if it differs, or a comment. Calls follow the shape of the dose curve; as a rule, active = well fitted curve in the direction sought with a large enough effect; inconclusive = small, poorly fitted or top-dose-only effect, or another doubt; inactive = no such curve, though single readings can be large; an effect the other way counts as inactive or inconclusive. Potency is read from the fitted curve at half-maximal effect. This is a subset; the hit share may differ from the screen's.

Key to letters: A = EPAC1 ag; B = FUS yeast rescue; C = aSyn rescue; D = TDP-43 yeast inh; E = EPAC1 antagonist
molecule: N#Cc1ccc(/C=N/NC(=O)c2cc(-c3cccs3)nc3ccccc23)cc1
  A: 2% | B: 23% | C: -5% | D: -8% | E: -12%
molecule: CCC(CC)C(=O)OCC(=O)NC12CC3CC(CC(C3)C1)C2
  A: -2% | B: -1% | C: 1% | D: -23% | E: 0%
molecule: Cc1ccc(-c2nn3cnnc3c3ccccc23)cc1C
  A: 2% | B: 12% | C: -3% | D: 18% | E: ?
molecule: CC(C(=O)N1CCOCC1)N1C(=O)c2ccccc2C1=O (configuration not stated)
  A: -2% | B: -16% | C: -11% | D: -13% | E: 23%
molecule: CC1CCCN(C(=O)COC(=O)Cc2c(F)cccc2Cl)C1 (configuration not stated)
  A: -7% | B: -1% | C: -2% | D: -22% | E: -1%
molecule: CC(C)NC(=O)NC(=O)CSc1nnc(C(F)(F)F)n1C
  A: -10% | B: -11% | C: -3% | D: 8%[9.22 µM] | E: -8%
molecule: Cc1sc2ncn(CC(=O)NCCCC(=O)N3CCC(C(N)=O)CC3)c(=O)c2c1C
  A: 1% | B: 5% | C: 4% | D: ? | E: -1%
molecule: COc1cccc(/C=C2/Sc3ccc(C(=O)NCCN4CCCC4)cc3NC2=O)c1
  A: 0% | B: 22% | C: 0% | D: 14% | E: -10%
molecule: O=C(Cc1c(Cl)cccc1Cl)OCC(=O)N1CCOCC1
  A: -4% | B: nt | C: 2% | D: 13% | E: 2%
molecule: CCN(CC)CCN1CNC(=S)N(c2ccccc2OC)C1
  A: 2% | B: 2% | C: 0% | D: -6% | E: 33%[activator]
molecule: COc1ccc(C(=O)COC(=O)[C@H](C)NS(=O)(=O)c2ccc(NC(C)=O)cc2)cc1OC
  A: 7% | B: nt | C: 4% | D: -10% | E: 14%
molecule: O=C(Nc1ccccc1)C1=C(O)CC(c2ccco2)CC1=Nc1ccccc1 (configuration not stated)
  A: 1% | B: 5% | C: -2% | D: 6% | E: -13%
molecule: CCOc1ccc(CN2CCNC(=O)C2CC(=O)NCCC2=CCCCC2)cc1 (configuration not stated)
  A: -1% | B: 39% | C: 0% | D: -21% | E: -20%
molecule: CN(Cc1nc2ccc(F)cc2[nH]1)Cc1c(C(=O)N(C)C)nc2ccc(Cl)cn12
  A: 6% | B: 11% | C: -3% | D: -10% | E: 7%
molecule: COc1ccc2cc3cc(C(=O)NCCCN4CCc5ccccc5C4)sc3nc2c1
  A: 3% | B: nt | C: 1% | D: -14% | E: 12%

2 entries drawn at random from the list so far, as already listed:
Key to letters: A = EPAC1 ag; B = FUS yeast rescue; C = aSyn rescue; D = TDP-43 yeast inh; E = EPAC1 antagonist
molecule: CCN(CC)CCN1CNC(=S)N(c2ccccc2OC)C1
  A: 2% | B: 2% | C: 0% | D: -6% | E: 33%[activator]
molecule: CC1CCCN(C(=O)COC(=O)Cc2c(F)cccc2Cl)C1 (configuration not stated)
  A: -7% | B: -1% | C: -2% | D: -22% | E: -1%

Additional results
Key to letters: A = EPAC1 ag; B = FUS yeast rescue; C = aSyn rescue; D = TDP-43 yeast inh; E = EPAC1 antagonist
molecule: COC(=O)C1=C(C)Nc2nnnn2C1c1cccnc1 (configuration not stated)
  A: -3% | B: -21% | C: -5% | D: -7% | E: -1%
molecule: Cc1ccc(S(=O)(=O)N(C)C)cc1N
  A: 11% | B: -5% | C: 0% | D: -1% | E: -5%
molecule: CSCC[C@@H](C(=O)O)N1Cc2ccccc2C1=O
  A: -6% | B: -18% | C: 4% | D: 22% | E: 10%
molecule: N#CCCN(CCC#N)C(=O)c1ccc2c(c1)OCO2
  A: 2% | B: 21% | C: 0% | D: -5% | E: 13%
molecule: CC(C)NC(=O)CC(=O)NN=C1CCCCC1
  A: 3% | B: -6% | C: -1% | D: -11%[9.22 µM] | E: 0%
molecule: Cc1cc(N2CCOCC2)n2nc(-c3cccc(F)c3)cc2n1
  A: 1% | B: 19% | C: 0% | D: -12% | E: 4%
molecule: N#CC(CCc1ccc([N+](=O)[O-])cc1)(CCc1ccc([N+](=O)[O-])cc1)C(N)=O
  A: 11% | B: 16% | C: 0% | D: 9% | E: -6%
molecule: CC1=C(C(N)=O)C(c2cccc(OCc3ccccc3)c2)n2nnnc2N1 (configuration not stated)
  A: 0% | B: ? | C: 0% | D: -14% | E: -12%
molecule: O=C(N[C@@H](Cc1ccccc1)C(=O)OCc1ccccc1)c1nc[nH]c1C(=O)NC1CCNCC1
  A: -16% | B: -9% | C: -2% | D: -4% | E: -5%
molecule: COc1ccc(C2/C(=C(/O)c3ccccc3)C(=O)C(=O)N2C)cc1OC (configuration not stated)
  A: 15% | B: -5% | C: -16% | D: 1% | E: -26%
molecule: CC1=C(C(=O)Nc2cccnc2)C(c2cccnc2)n2ncnc2N1 (configuration not stated)
  A: 3% | B: -13% | C: 1% | D: 14% | E: -14%
molecule: O=C(/C=C/NNC(=O)c1ccccc1O)c1ccccc1
  A: 2% | B: ? | C: 0% | D: 3% | E: 3%
molecule: C=CCN(c1ccccc1)S(=O)(=O)c1cc2c(cc1C)NC(=O)CO2
  A: -4% | B: 7% | C: 4% | D: 13% | E: -12%
molecule: N#CC(CCc1ccccc1[N+](=O)[O-])(CCc1ccccc1[N+](=O)[O-])C(N)=O
  A: 2% | B: 30% | C: 17% | D: 16% | E: 1%
molecule: C/C(=N\NC(=O)c1ccc(NS(=O)(=O)c2cccs2)cc1)c1ccccn1
  A: 4% | B: 33% | C: 19% | D: -8% | E: -11%

As a working copy, some entries already given:
Key to letters: A = EPAC1 ag; B = FUS yeast rescue; C = aSyn rescue; D = TDP-43 yeast inh; E = EPAC1 antagonist
molecule: C=CCN(c1ccccc1)S(=O)(=O)c1cc2c(cc1C)NC(=O)CO2
  A: -4% | B: 7% | C: 4% | D: 13% | E: -12%
molecule: N#CC(CCc1ccccc1[N+](=O)[O-])(CCc1ccccc1[N+](=O)[O-])C(N)=O
  A: 2% | B: 30% | C: 17% | D: 16% | E: 1%
molecule: C/C(=N\NC(=O)c1ccc(NS(=O)(=O)c2cccs2)cc1)c1ccccn1
  A: 4% | B: 33% | C: 19% | D: -8% | E: -11%

Later entries.
Key to letters: A = EPAC1 ag; B = FUS yeast rescue; C = aSyn rescue; D = TDP-43 yeast inh; E = EPAC1 antagonist
molecule: Cc1nn(-c2ccc(Cl)cc2)c2[nH]c(=O)c(CNCc3ccc4c(c3)OCO4)cc12
  A: 2% | B: 18% | C: 4% | D: -4% | E: 5%
molecule: O=C(O)COCC(=O)Nc1ccc(OCCc2ccccc2)cc1
  A: 14% | B: -12% | C: -1% | D: 9% | E: -3%
molecule: Cc1[nH]c(=O)[nH]c(=O)c1S(=O)(=O)NCCOC12CC3CC(CC(C3)C1)C2
  A: -10% | B: 3% | C: 0% | D: -1% | E: 3%
molecule: COc1cccc(/C=C2/Sc3ccc(C(=O)NCCN4CCCCCC4)cc3NC2=O)c1
  A: -12% | B: ? | C: -14% | D: 1% | E: -16%
molecule: C=CCSc1n[nH]c(-c2ccc(OC)cc2)n1
  A: 1% | B: 1% | C: 1% | D: 9% | E: -25%
molecule: CN(Cc1ccccc1)C(=O)CCS(=O)(=O)c1cc2c(cc1Cl)NC(=O)CO2
  A: 2% | B: -4% | C: -4% | D: 12% | E: 10%
molecule: C1=C(c2ccccc2)Nc2ccccc2N=C1c1ccccc1
  A: -4% | B: nt | C: -24% | D: 0% | E: -10%
molecule: CC(C)(C)OC(=O)[C@H](Cc1ccccc1)NC(=O)c1nc[nH]c1C(=O)N1CCNCC1
  A: 6% | B: -13% | C: 9% | D: 2% | E: -10%
molecule: Cc1nn(-c2ccccc2)c(C)c1C(=O)NCc1ccccc1F
  A: -1% | B: 9% | C: 4% | D: 3% | E: -10%
molecule: FC(F)(F)c1cnc(Oc2cccc3ccccc23)c(Cl)c1
  A: -5% | B: nt | C: -15% | D: 0% | E: 2%
molecule: O=C(CSc1nc(O)cc(=O)[nH]1)N1c2ccccc2CCc2ccccc21
  A: 6% | B: ? | C: -2% | D: -26% | E: 5%
molecule: CC1CCCC(NC(=O)CSc2nnc(C(F)(F)F)n2C)C1C (configuration not stated)
  A: -10% | B: -20% | C: 1% | D: 14% | E: 9%

By substructure, those above with an aryl thioether with sulfur outside any ring
Key to letters: A = EPAC1 ag; B = FUS yeast rescue; C = aSyn rescue; D = TDP-43 yeast inh; E = EPAC1 antagonist
molecule: CC(C)NC(=O)NC(=O)CSc1nnc(C(F)(F)F)n1C
  A: -10% | B: -11% | C: -3% | D: 8%[9.22 µM] | E: -8%
molecule: C=CCSc1n[nH]c(-c2ccc(OC)cc2)n1
  A: 1% | B: 1% | C: 1% | D: 9% | E: -25%
molecule: O=C(CSc1nc(O)cc(=O)[nH]1)N1c2ccccc2CCc2ccccc21
  A: 6% | B: ? | C: -2% | D: -26% | E: 5%
molecule: CC1CCCC(NC(=O)CSc2nnc(C(F)(F)F)n2C)C1C (configuration not stated)
  A: -10% | B: -20% | C: 1% | D: 14% | E: 9%
